VDR inh: vitamin D3 receptor (human) inhibition. Potency, µM, inactives show max response, negative = inhibition, hits mostly inhibitors. VDR-SRC2-3 peptide fluorescence polarization, 2 h. AID 504847. hit rate 0.93% among 400,000. P11473; active = well fitted inhibition curve with a large enough effect; inconclusive = small, poorly fitted or top-dose-only effect, or another doubt; inactive = no such curve, though single readings can be large or run the other way; note: series mostly up to about 120 µM
Target sequence (P11473 whole entry, looked up): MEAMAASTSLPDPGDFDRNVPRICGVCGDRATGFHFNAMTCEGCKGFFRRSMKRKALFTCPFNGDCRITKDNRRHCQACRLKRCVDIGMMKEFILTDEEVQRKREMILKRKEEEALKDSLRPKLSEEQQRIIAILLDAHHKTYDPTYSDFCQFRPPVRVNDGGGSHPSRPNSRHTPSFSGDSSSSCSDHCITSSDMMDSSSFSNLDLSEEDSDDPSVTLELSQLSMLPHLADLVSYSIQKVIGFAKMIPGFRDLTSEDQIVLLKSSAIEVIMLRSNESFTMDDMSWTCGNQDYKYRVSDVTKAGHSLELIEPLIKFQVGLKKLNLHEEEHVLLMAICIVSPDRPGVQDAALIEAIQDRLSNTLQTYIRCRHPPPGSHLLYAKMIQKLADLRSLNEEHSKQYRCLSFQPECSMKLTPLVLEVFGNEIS
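Signal is fluorescence polarization, reporting how far test compounds block the interaction of VDR with the SRC2-3 coregulator peptide after a 2 h room-temperature incubation.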
An asterisk follows results filed as active; u = inconclusive; & = joins results of further samples; [ ] = another dose, or the depositor's remark. % is set by controls: 0 for no effect and ±100 for the full control effect; potency is the fitted concentration of half-maximal effect.

Start of the data: the first four entries (preview)
smiles,VDR inh
COc1cc(/C=N/Nc2ccc(Cl)c(C(=O)O)c2)ccc1OC(=O)c1cccs1,-14%
CCOC(=O)C1CCCCN1C(=O)CCn1nnnc1CN1CCOCC1 (centres undefined),12%
O=C1c2ccccc2C(Nc2ccc(S(=O)(=O)N3CCCCCC3)cc2)N1c1ccccn1 (centres undefined),-4%
CO/N=C/c1c(C(=O)OC)nn(-c2ccccc2)c1Cl,u

Main list, from the start:
smiles,VDR inh
COc1cc(/C=N/Nc2ccc(Cl)c(C(=O)O)c2)ccc1OC(=O)c1cccs1,-14%
CCOC(=O)C1CCCCN1C(=O)CCn1nnnc1CN1CCOCC1 (centres undefined),12%
O=C1c2ccccc2C(Nc2ccc(S(=O)(=O)N3CCCCCC3)cc2)N1c1ccccn1 (centres undefined),-4%
CO/N=C/c1c(C(=O)OC)nn(-c2ccccc2)c1Cl,u
CCOc1ccc(N(CC)S(=O)(=O)N2CCCC(C(=O)Nc3ccc(C(C)=O)cc3)C2)cc1 (centres undefined),4%
CN(/N=C/c1ccc2c(c1)OCO2)c1ccccc1,-27%
O=S1(=O)CC(O)C(NCc2ccco2)C1 (centres undefined),u
COc1cc(C(=O)NNC2=NC(C)(C)Cc3cc(C)c(C)cc32)cc(OC)c1OC,-9%
CC1(C)O[C@@H]2[C@H](O1)[C@@H](COS(=O)(=O)O)O[C@H]2n1c(=S)[nH]c2c(=O)[nH]c(N)nc21,-14%
COc1ccc(-c2nc(N)ncc2-c2csc(C)n2)c(O)c1,-8%
COc1ccc(S(=O)(=O)N(Cc2nc(-c3ccc(C)cc3)no2)C2CCCCC2)cc1,4%
Cc1cc(NC(=O)C(=O)NCCN2CCN(C(=O)c3cccs3)CC2)ccc1Br,-4%
Cc1oc(-c2ccc(C(=O)NCCC(C)C)cc2)nc1CS(=O)(=O)c1ccccc1,13%
CCNC(=S)SCCOc1ccccc1C,-3%
COc1ccc(C(=O)N2CCC3(CC2)CN(c2ccncc2)C3)cc1,-1%
Cn1c(=O)[nH]c(=O)c2c1nc(CN1CCN(c3ccccc3F)CC1)n2CC(N)=O,-11%
O=C(CCN1CCN(c2ccccc2)CC1)Nc1ccccc1,-7%
CCCc1nc2nc(C)c(NS(=O)(=O)c3ccc([N+](=O)[O-])cc3)c(=O)n2[nH]1,12%
CN(C)S(=O)(=O)c1cccc(C(=O)Nc2cc3c(cc2C(=O)O)OCCCO3)c1,34%[activator]
COc1ccc(C2(C)NC(=O)N(CC(=O)Nc3ccc(C)cc3Br)C2=O)cc1OC (centres undefined),-7%

2 entries drawn at random from those above:
smiles,VDR inh
Cc1oc(-c2ccc(C(=O)NCCC(C)C)cc2)nc1CS(=O)(=O)c1ccccc1,13%
COc1ccc(C2(C)NC(=O)N(CC(=O)Nc3ccc(C)cc3Br)C2=O)cc1OC (centres undefined),-7%

The list continues.
smiles,VDR inh
CCOC(=O)N1CCN(C(=S)Nc2ccc(C)cc2)CC1,-11%
COCCNc1ccc(-c2nc(-c3ccco3)no2)cc1[N+](=O)[O-],2%
COCCCNCCOCCOc1ccccc1-c1ccccc1,-6%
CC(C)OC(=O)c1ccc(N2CCN(c3ccc(F)cc3)CC2)nc1,u
O=C(O)[C@H]1CCCN1C(=O)c1ccccc1N1C(=O)[C@@H]2Cc3c([nH]c4ccccc34)C(c3cccc(Cl)c3)N2C1=O (some centres undefined),-7%
CCOc1ccc(NC(=O)Cn2c(C)cc3ccccc3c2=O)cc1,-7%
Cc1cc(CNC(=O)CC2C(=O)NCCN2CC(c2ccccc2)c2ccccc2)on1 (centres undefined),2%
COc1ccc(NS(=O)(=O)c2cc(NC(=O)CCc3ccccc3)ccc2N2CCOCC2)cc1,-4%
Cn1cc(S(=O)(=O)N2CCCC2)cc1C(=O)NCc1ccc(F)cc1,0%
CSCC[C@H](NC(=O)N1CCn2c1nc1ccccc12)C(=O)N1CCCCC1,-14%
CC(=O)Nc1cccc(NC(=O)CSc2nnnn2C(C)C)c1,9%
CN(C)c1nc(N)nc(-c2nc3ccccc3s2)n1,3%
O=C(NCC(c1ccc(Cl)cc1)N1CCOCC1)c1ccccc1F (centres undefined),3%
CC(Oc1ccc(C(C)(C)C)cc1)C(=O)NCC(c1ccco1)N1CCCC1 (centres undefined),10%
COc1ccc(NC(=O)C2=C(C)C(=O)OC23CCN(C(C)C)CC3)cc1Cl,2%
Cc1nc(NC(=O)c2cncc(Br)c2)ccc1Br,-15%
O=Cc1ccc(Oc2cccc(C(F)(F)F)c2)nc1,4%
CN(C)C(CNC(=O)C1CCN(S(=O)(=O)c2ccccc2C(F)(F)F)CC1)Cc1ccccc1 (centres undefined),-3%
Cc1ccccc1Cn1cc(NC(=O)c2cc(-c3cccs3)on2)cn1,6%
COc1ccc(C(=O)N2CCCC(Nc3ccc(C)c(C)c3)C2)c(OC)n1 (centres undefined),-4%
CC1CN(C(=O)COC(=O)/C=C/c2cccc([N+](=O)[O-])c2)CC(C)O1 (centres undefined),-24%
O=C(O)COc1ccccc1C(Nc1cccnc1)c1cc(Cl)c2cccnc2c1O (centres undefined),22µM*
CCOc1ccc(C(=O)NC2CCCCCCC2)cc1,15%
Cc1cc(C(=O)NC2CCCCC2)c2cc(F)ccc2n1,-3%
CCOc1cccc(-c2cc(C(=O)NN)[nH]n2)c1,-4%
COc1cc(/C=C2/CC/C(=C/c3ccc(O)c(OC)c3)C2=O)ccc1O,-9%
CCOc1ccccc1NC(=O)C(=O)N/N=C/c1cc(Br)ccc1O,14%
CS(=O)(=O)N(CC(N)=O)c1ccc2c(c1)OCO2,-9%
Cc1cc(C)c(S(=O)(=O)NCCc2cc3c(C)ccc(C)c3[nH]c2=O)c(C)c1,-19%
Cc1ccc(SC(CC(=O)c2ccc(F)cc2)C(=O)O)cc1 (centres undefined),22µM*

3 entries from above, with the structure last.
VDR inh	smiles
-9%	COc1cc(/C=C2/CC/C(=C/c3ccc(O)c(OC)c3)C2=O)ccc1O
14%	CCOc1ccccc1NC(=O)C(=O)N/N=C/c1cc(Br)ccc1O
-9%	CS(=O)(=O)N(CC(N)=O)c1ccc2c(c1)OCO2

More results:
smiles,VDR inh
Cc1ccc(C(=O)O)cc1NS(=O)(=O)c1ccc2c(c1)oc(=O)n2C,8%
COc1cccc(NC(=O)COc2cc(C)cc3oc(=O)cc(C)c23)c1,-12%
O=C(Cn1cccc1C(=O)c1ccccc1)NCc1ccco1,-11%
COCCOC(=O)C(C#N)c1nc2ccccc2nc1N1CCCC1 (centres undefined),-21%
O=S(=O)(Nc1ccccn1)c1ccc(Br)cc1,9%
C(=N\Nc1ccc2ccccc2n1)/c1ccc2c(c1)OCCO2,0%
CCOC(=O)/C=C/C(=O)OCC(=O)Nc1cccc(Cl)c1Cl,u
CCN(C[C@H]1N[C@@](CC)(C(=O)OC)[C@H]2C(=O)N(C)C(=O)[C@@H]12)S(=O)(=O)c1ccc(OC)cc1,18%
CCC(C(=O)NC1CCCC1)N(Cc1ccco1)C(=O)Cn1nnc(-c2ccc(C)cc2)n1 (centres undefined),10%
COc1cccc(C2c3c(C)nn(-c4ccc([N+](=O)[O-])cc4)c3N=C3C(=O)Nc4ccccc4N32)c1 (centres undefined),-14%
Cc1cccc(N2CCN(C(=O)CSc3nc4ccccc4nc3N3CC(C)OC(C)C3)CC2)c1C (centres undefined),-14%
CC(=O)N1CCCc2cc(S(=O)(=O)N(C)CC(=O)Nc3ccc(F)c(Cl)c3)ccc21,6%
Cc1ccc(C)c2c1[nH]c1ccccc12,3%
O=C(Cn1ncc2c3ccccc3n(Cc3ccc(Cl)cc3)c2c1=O)NCc1ccccn1,14%
Cc1cccc2c1cnn2C(=O)Nc1ccccc1Cl,-17%
CCCCC(O)(CCCC)C(=O)NN(C(=O)c1cccnc1Cl)c1ccccc1,-7%
CCCN1CNc2c(c(=O)[nH]c(=S)n2CCc2c(C)cccc2C)C1,-6%
Cc1c(NS(=O)(=O)c2ccc(NC(=O)CCC(=O)O)cc2)c(=O)n(-c2ccccc2)n1C,9%
O=C(COc1c(CO)cc(Br)cc1CO)NC1CCCc2ccccc21 (centres undefined),4%
COc1cccc(CC(NC(C)=O)C(=O)NC2CCN(S(=O)(=O)c3ccc(F)cc3)CC2)c1OC (centres undefined),4%
O=C(COc1ccc2c(-c3ccccc3)cc(=O)oc2c1)NCCN1CCOCC1,6%
O=C(CCN1C(=O)/C(=C/c2ccccc2Cl)SC1=S)Nc1ccccc1C(=O)O,79µM*
O=C1NC(=Nc2ccc(Cl)cc2)SC1Cc1cc(Cl)ccc1Cl (centres undefined),-19%
CCOC(=O)C(=O)Nc1cc([N+](=O)[O-])ccc1C,-2%
CCOc1cc(C2C3=C(CC(C)(C)CC3=O)N(CCOC)C3=C2C(=O)CC(C)(C)C3)ccc1OC,-32%
CCC(C)NC(=O)CN(C)S(=O)(=O)c1ccc2c(c1)c(=O)n(C)c(=O)n2C (centres undefined),-8%
COC(=O)c1cnc(SC)nc1C,-3%
FC(F)(F)C1CC(c2cccs2)Nc2ncnn21 (centres undefined),-17%
CCCc1oc2c(c(=O)c1CC)C(=O)CC(C)(C)C2,-4%
CN1CCN(C(=O)c2ccc(Cl)c(S(=O)(=O)N3CCCCCC3)c2)CC1,7%
CCN1CCN(CC(=O)Nc2cc(C)on2)CC1,-8%
COc1ccc2c(c1)c1c(c(=O)n(-c3ccc(OC)c(OC)c3)c(=O)n1Cc1ccccc1C)n2C,11%
Cc1cc(=O)oc2cc(OCC(=O)N3CCN(C(=O)c4ccco4)CC3)ccc12,-2%
CC(=O)NCC(=O)OCC(=O)c1ccc(C)cc1,23%
Cc1ccc(S(=O)(=O)N(CC(=O)Nc2ccc(C(C)C)cc2)Cc2ccccc2)cc1,-22%
O=C(O)c1cccc(NC(=O)c2ccc3c(c2)C(=O)N(c2ccccc2)C3=O)c1,-12%
COc1ccc(Cl)cc1NC(=O)CSc1nc2ccccc2nc1N1CCCCC1,-10%
COc1ccc(C2=NN(c3ccccc3)C(=O)/C2=C\c2ccc(O)c(OC)c2)cc1,-10%
O=C(Nc1ccccc1OCc1cc(=O)n2ccccc2n1)c1cccc(Br)c1,17%
COC(=O)[C@H](Cc1c[nH]c2ccccc12)NC(=O)Nc1ccccc1OC,-7%

Additional entries:
| molecule | VDR inh |
| --- | --- |
| COc1ccc(S(=O)(=O)NCC(=O)N(CC(=O)NCC2CCCO2)c2c(C)cccc2C)cc1 (centres undefined) | 31%[activator] |
| O=C1CC(=O)C(n2cncn2)C(c2c(F)cccc2Cl)C1 (centres undefined) | -7% |
| COc1cc(OC)c(OC)cc1CNC(=O)c1cc(=O)[nH]c2ccccc12 | 16% |
| O=C(O)c1ccc(N/N=C/c2ccc(-c3cccc(Cl)c3)o2)cc1 | -5% |
| Cc1noc(C)c1/C=N/Nc1ccccn1 | 10% |
| O=C(CCCOc1ccccc1)Nc1cccc(S(=O)(=O)N2CCCCCC2)c1 | 9% |
| c1coc(CN2CCN(C(c3cccs3)c3nnnn3C3CCCC3)CC2)c1 (centres undefined) | 4% |
| COc1cccc2cc(C(C)N(CCCN3CCOCC3)C(=O)Nc3ccc(Cl)cc3)oc12 (centres undefined) | 1% |
| CC(O)Cc1nsc(NC(=O)c2ccc(Br)o2)n1 (centres undefined) | -1% |
| CC(=O)c1ccc(N2CCN(C(C)C(=O)NC3CCCc4ccccc43)CC2)cc1 (centres undefined) | 9% |
| S=C(NCCN1CCOCC1)Nc1cccc(Cl)c1 | 8% |
| CCOc1cc(CNC(=O)CN2C(=O)c3ccccc3S2(=O)=O)ccc1OC | 9% |
| COc1ccc(/C=C2\SC(=S)N(CCC(=O)NC3=NCCS3)C2=O)cc1OC | -18% |
| CCOc1ccc(CSc2nc(C)cc(COC)c2C#N)cc1OCC | 8% |
| NS(=O)(=O)c1ccc(CCNC(=O)C2CCN(S(=O)(=O)c3ccc(Br)s3)CC2)cc1 | 3% |
| CN(C)CCn1c(=O)n(C2CCCCC2)c(=O)c2c3c(sc21)CCCCC3 | 28% |
| Cc1nn(C)c(C)c1Sc1ccccc1N | -5% |
| CCOC(=O)c1c(NC(=O)c2cccnc2Cl)sc(C(=O)N(C)C)c1C | 0% |
| CC(Oc1ccccc1)C(=O)N1CCN(Cc2cc(=O)n3nc(-c4ccccc4Cl)sc3n2)CC1 (centres undefined) | 5% |
| Cc1ccc(-n2nnc3c(=O)n(CC(=O)N4CCCC4)cnc32)cc1 | 12% |
| O=C(Nc1c(-c2cccs2)nc2ccccn12)c1ccccc1F | -2% |
| O=C(Cc1nc2ccccc2[nH]c1=O)c1ccccc1 | 10% |
| O=C(CN(Cc1ccco1)C(=O)CNS(=O)(=O)c1ccccc1)NC1CCCCC1 | -5% |
| Cc1ccc(-c2nc3c4ccccc4[nH]c(=O)n3n2)cc1 | -23% |

Look-ups from the results shown.
Result of S=C(NCCN1CCOCC1)Nc1cccc(Cl)c1 in VDR inh: 8%
Result of COc1cccc(NC(=O)COc2cc(C)cc3oc(=O)cc(C)c23)c1 in VDR inh: -12%

Other records:
| molecule | VDR inh |
| --- | --- |
| Cc1oc2cc(Br)c(O)c(Br)c2c1C(=O)c1ccccc1 | -2% |
| COc1ccccc1NC(=O)CCS(=O)(=O)c1ccc2c(c1)oc(=O)n2C | -10% |
| COC(=O)c1cc2ccsc2n1CC(=O)N1CCCc2ccccc21 | 8% |
| CC1CN(C(=O)NCc2ccccc2)c2cc(Cl)ccc2O1 (centres undefined) | 16%&1% |
| Cc1cccc(NC(=O)CN(C)S(=O)(=O)c2cccc3cccnc23)c1C | -5% |
| Cc1ccc(S(=O)(=O)NC(CC(C)C)C(=O)NCCCn2nc(C)cc2C)cc1 (centres undefined) | -1% |
| Nc1nc(SCc2ccc([N+](=O)[O-])cc2)c2ncn(C3OC(CO)C(O)C3O)c2n1 (centres undefined) | 9% |
| Cc1noc(C)c1CSCC(=O)N(C)CC(=O)Nc1ccccc1Cl | 4% |
| COc1ccc(-n2c(=O)c3c(c4cc(OC)ccc4n3C)n(CC(=O)N3CCCC3)c2=O)cc1 | 13% |

Only part of the results is shown. The share of hits here may be higher or lower than overall.
